# B2AR ag – human beta-2 adrenergic receptor agonism by FAP; P07550; Am2.2-beta2AR cells, FAP receptor internalization, flow cytometry; reference of the scale not given here; response, % (test concentration not listed); hit rate 0.43% among 340,000; AID 504454;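 active = response above a set limit, near 3 SD of response in nonfluorescent compounds, cut at about 42% in these data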;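 also: stock transfer was 100 nL into about 11 µL; a reference agonist was the positive control; negative values mostly stem from fluorescent compounds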
# Bfl-1 A1 inh – inhibitors of the anti-apoptotic protein A1, read as caspase activation; MEF A1-2A-BIM cells, Caspase-Glo 3/7 luminescence, 3 h; percent of clofoctol response, vehicle zero; caspase activation, % (no concentration beside the values); hit rate 0.066% among 330,000; AID 2462;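 active = over half of replicate activation scores above 10%, or exactly half above 10 with the replicate mean above 10; inconclusive = replicate mean below 10 yet half the replicates above 10; inactive = over half of replicates below 10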;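 also: wells of about 30 µL received 50 nL stock; many hits fall short of the cut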
# Beta apoptosis – beta cell apoptosis inhibition | INS-1E cytokine-induced death, ATP luminescence, 48 h; percent of positive-control rescue, neutral wells zero | protection from apoptosis, % (no concentration beside the values) | hit rate 0.8% among 300,000 | AID 435005;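 active = all replicates at 75% or more, or half of them and the mean; inconclusive = half reach 75% but not the mean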;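 also: 0% = cytokine-treated negative control wells and 100% = positive control rescue; higher means more ATP so stronger rescue from cytokine killing; wells of about 40 µL received 100 nL stock; the first replicate is given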
# T cruzi repl – T. cruzi replication inhibition; T. cruzi beta-gal in NIH3T3, luminescence, 90 h; inhibition, % (no concentration beside the values); hit rate 1.4% among 300,000;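 active = mean inhibition across valid replicates above about 55%, limit read from the data; inconclusive = mean below that limit but half or more replicates reach it; inactive = mean below it, under half of replicates reach it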;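 also: signal also drops with host cell toxicity which is not excluded here; 0% = plate median of DMSO wells and 100% = zero luminescence signal; higher percent means less beta-gal luminescence so fewer parasites; stock transfer was 50 nL into about 50 µL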
# RanGTP-Impb inh – disruptors of Ran-importin-beta complex formation – biochemical, FRET, CFP-Ran, YFP-importin-beta, homogeneous, primary screen; inhibition, % (test concentration not listed); AID 2216; hit rate 1.1% among 300,000; cell-free CFP-Ran/YFP-importin-beta FRET ratio;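 active = most replicates above 15%; inconclusive = exactly half above 15%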;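 also: 0% = DMSO wells and 100% = Ran loaded with GDP instead of GTP; wells of about 40 µL received 100 nL stock; the first replicate is given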
# LANA-H2A inh – blocks KSHV LANA binding to histone H2A/H2B; inhibition, % (no concentration beside the values); cell-free LANA-H2A/H2B peptide, fluorescence polarization; hit rate 0.6% among 320,000; Q9QR71; in the data active = inhibition mostly above about 10%, no sharp cut-off; inactive = mostly below about 6.7%;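 also: stock transfer was 7.5 nL into about 10 µL; 0% = median of vehicle wells and 100% = median of positive control wells; one replicate is shown; the record names a cut of 25% in any replicate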
# Target sequence (Q9QR71 whole entry, looked up): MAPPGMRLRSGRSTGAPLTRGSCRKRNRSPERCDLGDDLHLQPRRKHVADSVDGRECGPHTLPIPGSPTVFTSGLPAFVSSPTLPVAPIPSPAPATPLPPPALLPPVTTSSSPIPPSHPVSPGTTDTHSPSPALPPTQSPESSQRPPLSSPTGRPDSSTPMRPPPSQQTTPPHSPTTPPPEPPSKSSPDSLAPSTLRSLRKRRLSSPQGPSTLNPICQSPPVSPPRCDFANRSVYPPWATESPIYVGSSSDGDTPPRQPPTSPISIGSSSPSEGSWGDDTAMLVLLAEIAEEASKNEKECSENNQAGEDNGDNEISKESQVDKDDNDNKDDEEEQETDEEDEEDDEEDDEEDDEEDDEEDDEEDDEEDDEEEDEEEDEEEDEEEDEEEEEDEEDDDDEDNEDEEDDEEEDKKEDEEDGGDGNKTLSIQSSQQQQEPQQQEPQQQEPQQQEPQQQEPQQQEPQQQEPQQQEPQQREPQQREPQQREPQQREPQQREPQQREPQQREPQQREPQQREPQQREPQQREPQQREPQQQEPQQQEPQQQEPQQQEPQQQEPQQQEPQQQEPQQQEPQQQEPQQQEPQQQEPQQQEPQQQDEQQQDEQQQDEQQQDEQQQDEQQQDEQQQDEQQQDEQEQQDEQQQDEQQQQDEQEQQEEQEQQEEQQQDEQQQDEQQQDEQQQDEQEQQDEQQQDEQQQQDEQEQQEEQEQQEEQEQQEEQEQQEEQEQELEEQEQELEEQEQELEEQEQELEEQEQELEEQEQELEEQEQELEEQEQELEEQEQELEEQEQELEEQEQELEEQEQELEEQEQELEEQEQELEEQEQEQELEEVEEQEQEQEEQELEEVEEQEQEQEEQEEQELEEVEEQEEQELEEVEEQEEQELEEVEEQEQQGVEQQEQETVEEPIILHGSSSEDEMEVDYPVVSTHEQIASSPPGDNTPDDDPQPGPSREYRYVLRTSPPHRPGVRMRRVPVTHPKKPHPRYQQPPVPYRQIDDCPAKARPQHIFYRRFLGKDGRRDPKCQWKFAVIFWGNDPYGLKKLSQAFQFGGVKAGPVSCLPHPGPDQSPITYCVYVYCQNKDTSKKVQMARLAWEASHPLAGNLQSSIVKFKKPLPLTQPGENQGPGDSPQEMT
# Calb FLC – C. albicans growth modulation with fluconazole | hit rate 0.57% among 300,000 | C. albicans CaCi-2 (fluconazole-resistant clinical isolate) + fluconazole, Alamar Blue growth, 48 h | growth inhibition, % (test concentration not listed);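 active = most replicates above 75%; inconclusive = exactly half above 75%; inactive = most below 75%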;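 also: all wells also contain fluconazole at 8 µg/ml as a sub-toxic cotreatment; 0% = median of DMSO wells and 100% = median of geldanamycin control wells; wells of about 8 µL received 7.5 nL stock; the first replicate is given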
# UCH37 inh – inhibitors of human deubiquitinating enzyme UCH37. AID 588478. Q9Y5K5. inhibition, % (concentration not given with the values). hit rate 0.33% among 330,000. purified proteasome/UCH37, Ub-AMC cleavage fluorescence;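 active = mean of two replicates above 20%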;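 also: 0% = compound-free wells with enzyme and 100% = wells lacking proteasome; stock transfer was 100 nL into about 20 µL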
#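 Material: Human UCH37 enzyme supplied as purified proteasome complex | Schedule: 30 min compound-proteasome preincubation then 25 min substrate reaction, room temperature | Detection: AMC fluorescence from Ub-AMC cleavage, excitation 355 nm, emission 460 nm | Benchmarks: Wells without proteasome as full block, compound-free enzyme plus substrate as uninhibited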
# * marks the source's active call; other numbers are inactive results; ? = inconclusive; · = no result given.
1: CCOc1cc(/C=C(\C#N)C(=O)Nc2ccc(S(N)(=O)=O)cc2)ccc1OCCN1CCOCC1
2: C=C1C(C(=O)Nc2ccc(F)cc2)C1C(=O)Nc1ccc(F)cc1 (configuration not stated)
3: O=C1CC(c2ccco2)CC2=C1C(c1ccccc1)n1nc(C(F)(F)F)nc1N2 (configuration not stated)
4: O=C(CC12CC3CC(CC(Br)(C3)C1)C2)OCCN1CCCCC1
5: COc1ccc(C(=O)NNC(=S)NC(=O)c2cccs2)cc1
6: CSCCC(NC(=O)COc1ccccc1)C(=O)N(C)CC(=O)Nc1c(C)cccc1C (configuration not stated)

entry no. | 1 | 2 | 3 | 4 | 5 | 6
B2AR ag | 22 | -1 | -7 | 6 | 2 | -5
Bfl-1 A1 inh | -0.2 | 0.9 | -0.7 | 1.0 | 0.2 | 0.3
Beta apoptosis | 0 | -2 | · | -4 | 11 | -3
T cruzi repl | -1 | -16 | 8 | 2 | 8 | -11
RanGTP-Impb inh | 5.2 | -4.0 | 0.4 | -3.1 | 0.4 | ·
LANA-H2A inh | -4.0 | -2.7 | -0.4 | -0.7 | -2.4 | -472
Calb FLC | -3 | -16 | -1 | -33 | ? | -2
UCH37 inh | 4.1 | 1.0 | -16 | -2.1 | · | 0.3

7: CC1CCN(C(=O)CN2C(=O)C(C)(C)Oc3ccc(C(=O)NC(C)C)cc32)CC1
8: CCOC(=O)C(NC(C)=O)(OCc1ccccc1)C(F)(F)F (configuration not stated)
9: Cc1cc(C)nc(NN2C(=O)/C(=C/c3ccc(O)cc3)SC2=S)n1
10: CC(=O)c1ccc(Nc2nc3ccc(C)cc3n3cnnc23)cc1
11: CCOC(=O)N1CCN(Cc2nc(N)nc(Nc3ccccc3C)n2)CC1
12: Cc1ccc(NC(=O)c2cccc(S(C)(=O)=O)c2)cc1

entry no. | 7 | 8 | 9 | 10 | 11 | 12
B2AR ag | 4 | 2 | -10 | 1 | 18 | 1
Bfl-1 A1 inh | 0.0 | 0.4 | -1.0 | 0.6 | -0.6 | -0.2
Beta apoptosis | -1 | 1 | 1 | -9 | -5 | -4
T cruzi repl | -2 | -6 | -6 | 7 | -4 | -14
RanGTP-Impb inh | -0.5 | 5.2 | -4.2 | 1.4 | -2.6 | 3.4
LANA-H2A inh | -1.0 | -0.2 | 0.6 | 2.5 | 0.9 | 3.8
Calb FLC | -4 | 14 | 12 | 13 | 0 | 7
UCH37 inh | -0.4 | 1.7 | 8.6 | -8.3 | -1.5 | 4.1

13: Cc1ccc(S(=O)(=O)N2CCCC2)cc1C(=O)N1CCC(C)CC1
14: COc1ccc(N2CCN(C(=O)CCc3ccc(S(=O)(=O)NC(C)C)cc3)CC2)cc1
15: Cn1nnnc1SCCNCc1ccccc1OCc1ccccc1Cl
16: COc1ccc(C(CNC(=O)c2ccc(S(=O)(=O)N3CCOCC3)cc2)N2CCCCC2)cc1 (configuration not stated)
17: C/C=C\C=C\C(=O)N1CC2(CC(c3cccc(NC(=O)COc4ccc(Cl)cc4)c3)=NO2)C[C@H]1C(N)=O (some centres not stated)
18: COC(=O)C(Cc1ccccc1)NC(=O)CSc1nc(C)cc(=O)[nH]1 (configuration not stated)

entry no. | 13 | 14 | 15 | 16 | 17 | 18
B2AR ag | 2 | 0 | -7 | 0 | -5 | 1
Bfl-1 A1 inh | -0.2 | -1.1 | 0.2 | 2.6 | 0.1 | 0.2
Beta apoptosis | 1 | 0 | 4 | 1 | 1 | -1
T cruzi repl | 18 | 6 | 14 | -2 | 16 | 9
RanGTP-Impb inh | 0.9 | 5.6 | 6.4 | 0.3 | -3.5 | 1.7
LANA-H2A inh | -5.5 | -4.2 | -2.3 | 7.0 | -1.4 | 0.5
Calb FLC | -17 | 36 | -5 | 1 | -3 | -6
UCH37 inh | 4.3 | 1.5 | 2.3 | 4.6 | -1.0 | 2.3

19: [O-]/[N+](=C\c1ccccc1)c1ccc(Br)cc1
20: COc1ccccc1CNC(=O)CCSCc1cccc(Cl)c1
21: Cc1cccc(-n2c3nc(=O)[nH]c(=O)c-3cc3c(C)nn(-c4ccccc4)c32)c1
22: O=C(c1ccc(N2C(=O)CCC2=O)cc1)N1CCOCC1
23: CC(=O)/C=C1/C(=O)Nc2ccccc21
24: Cc1sc2ccccc2c1CNC[C@H]1O[C@@H](n2cnc3c(N)ncnc32)[C@H](O)[C@@H]1O

entry no. | 19 | 20 | 21 | 22 | 23 | 24
B2AR ag | -2 | -4 | · | -1 | 37 | -1
Bfl-1 A1 inh | -5.9 | 0.1 | 0.1 | 0.6 | 0.1 | -1.5
Beta apoptosis | -5 | 3 | -5 | -7 | -4 | -7
T cruzi repl | · | 8 | -7 | -2 | 24 | ·
RanGTP-Impb inh | · | -2.7 | 5.7 | -1.5 | -0.3 | ·
LANA-H2A inh | 0.3 | 1.2 | -1.1 | -2.6 | -6.5 | 1.9
Calb FLC | · | 0 | 12 | 5 | -1 | ·
UCH37 inh | -0.8 | -0.3 | · | 2.3 | -0.9 | 6.6

# 14 entries from above, with tabs:
no.	structure	B2AR ag	Bfl-1 A1 inh	Beta apoptosis	T cruzi repl	RanGTP-Impb inh	LANA-H2A inh	Calb FLC	UCH37 inh
11	CCOC(=O)N1CCN(Cc2nc(N)nc(Nc3ccccc3C)n2)CC1	18	-0.6	-5	-4	-2.6	0.9	0	-1.5
12	Cc1ccc(NC(=O)c2cccc(S(C)(=O)=O)c2)cc1	1	-0.2	-4	-14	3.4	3.8	7	4.1
13	Cc1ccc(S(=O)(=O)N2CCCC2)cc1C(=O)N1CCC(C)CC1	2	-0.2	1	18	0.9	-5.5	-17	4.3
14	COc1ccc(N2CCN(C(=O)CCc3ccc(S(=O)(=O)NC(C)C)cc3)CC2)cc1	0	-1.1	0	6	5.6	-4.2	36	1.5
15	Cn1nnnc1SCCNCc1ccccc1OCc1ccccc1Cl	-7	0.2	4	14	6.4	-2.3	-5	2.3
16	COc1ccc(C(CNC(=O)c2ccc(S(=O)(=O)N3CCOCC3)cc2)N2CCCCC2)cc1 (configuration not stated)	0	2.6	1	-2	0.3	7.0	1	4.6
17	C/C=C\C=C\C(=O)N1CC2(CC(c3cccc(NC(=O)COc4ccc(Cl)cc4)c3)=NO2)C[C@H]1C(N)=O (some centres not stated)	-5	0.1	1	16	-3.5	-1.4	-3	-1.0
18	COC(=O)C(Cc1ccccc1)NC(=O)CSc1nc(C)cc(=O)[nH]1 (configuration not stated)	1	0.2	-1	9	1.7	0.5	-6	2.3
19	[O-]/[N+](=C\c1ccccc1)c1ccc(Br)cc1	-2	-5.9	-5	·	·	0.3	·	-0.8
20	COc1ccccc1CNC(=O)CCSCc1cccc(Cl)c1	-4	0.1	3	8	-2.7	1.2	0	-0.3
21	Cc1cccc(-n2c3nc(=O)[nH]c(=O)c-3cc3c(C)nn(-c4ccccc4)c32)c1	·	0.1	-5	-7	5.7	-1.1	12	·
22	O=C(c1ccc(N2C(=O)CCC2=O)cc1)N1CCOCC1	-1	0.6	-7	-2	-1.5	-2.6	5	2.3
23	CC(=O)/C=C1/C(=O)Nc2ccccc21	37	0.1	-4	24	-0.3	-6.5	-1	-0.9
24	Cc1sc2ccccc2c1CNC[C@H]1O[C@@H](n2cnc3c(N)ncnc32)[C@H](O)[C@@H]1O	-1	-1.5	-7	·	·	1.9	·	6.6

# Carrying on.
25: COc1cc(NS(=O)(=O)c2ccc(OC)c(C)c2C)c(OC)cc1Cl
26: CC(=O)c1ccc(Nc2nc(N3CCOCC3)nc(N3CCOCC3)n2)cc1
27: Cc1ccc(NC(=O)CC2C(=O)N(Cc3ccccc3)C(=S)N2NC(=O)c2ccccc2)c(C)c1 (configuration not stated)
28: Cc1c(C)n(C)c2ccc(C(=O)NCCCN3CCN(C)CC3)cc12
29: CCCCc1nnc(NC(=O)CCc2ccccc2)s1
30: CC(=O)Nc1ccc(NC(=O)Cc2sc(C)nc2-c2ccc(C)cc2)cc1

entry no. | 25 | 26 | 27 | 28 | 29 | 30
B2AR ag | -14 | -1 | 18 | 6 | -8 | 1
Bfl-1 A1 inh | -0.3 | 0.7 | -0.5 | 1.9 | 1.2 | -0.3
Beta apoptosis | 29 | 5 | 5 | 0 | 1 | 2
T cruzi repl | -20 | 15 | -6 | 3 | -8 | -2
RanGTP-Impb inh | 2.3 | -3.5 | 2.5 | ? | -5.8 | -3.2
LANA-H2A inh | -0.4 | 3.5 | -1.8 | 4.4 | 2.6 | ·
Calb FLC | 1 | 2 | 3 | 3 | 16 | -10
UCH37 inh | 0.5 | 7.4 | 1.2 | 1.3 | 4.3 | -4.1
